BJeLR lethal: MLPCN primary cell-based screen for lethality selective to Ras in HRASV12 cells | BJeLR (HRASV12) viability, CellTiter-Glo ATP luminescence, 48 h; reference of the scale not given here | inhibition, % (concentration not given with the values) | 300,000 compounds, 0.17% hits | AID 1554, 2009;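 active = replicate mean above 50%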;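 also: 50 nL library stock added to about 25 µL; numbers are from one replicate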
Bead autofluor: compound fluorescence in toxin protease inhibitor counterscreen | AID 624483 | fluorescence intensity (no concentration beside the values) | 360,000 compounds, 3.1% hits | compound autofluorescence counterscreen, microsphere flow cytometry; hits give high values;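 active = at least 3 SD above the mean of all compounds, about 16000 in these data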;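 also: 100 nL of 1 mM stock went into each well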
RN4220 kill: growth inhibition of S. aureus RN4220, primary screen, OD600; 330,000 compounds, 0.33% hits; 16 h; AID 1259311, 2017; inhibition, % (test concentration not listed);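 active = z-score of -3 or lower and OD600 up to 0.18 on both plates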;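 also: plate controls were untreated cells for no effect and reference antibiotic for full effect; stock transfer was 100 nL into about 80 µL; one replicate is shown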
Mtb hypoxia rep: PubChem AID 1159583. M. tuberculosis hypoxia-regulated fluorescent reporter, fluorescence. fluorescence inhibition, % (no concentration beside the values). 300,000 compounds, 0.1% hits;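 active = 35 to 45% if threefold the growth effect, above 45% if 1.5-fold the growth effect; inactive = the rest, general growth blockers included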;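 also: wells of about 50 µL received 100 nL stock; 0% = vehicle wells and 100% = reference inhibitor wells; whole bacteria with a GFP reporter of the hypoxia response; strong numbers were not always called active; many hits fall short of the cut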
PrP 5UTR inh: inhibition of PrP 5' UTR reporter expression; 340,000 compounds, 0.35% hits; cell-based PrP 5' UTR mRNA reporter, plate reader; inhibition, % (no concentration beside the values);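 active = every replicate at 50% or more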;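 also: 0 = median of the neutral control wells; tested in H4 reporter cells; numbers are from one replicate; inactives centre near -14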
Sa ugtP lethal: growth inhibition of ugtP-null S. aureus, primary screen, RN4220 ugtP deletion, OD600. 16 h; some inactives read as strong as hits. growth inhibition, % (concentration not given with the values). 330,000 compounds, 0.54% hits. AID 1259309, 2017;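 active = z-score under -3 and OD600 up to 0.15 on both plates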;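 also: plate controls were untreated wells for no effect and antibiotic for full effect; wells of about 80 µL received 100 nL stock; the first replicate is given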
Mtb hypoxia rep growth: recorded beside Mtb hypoxia rep, whose call it bears; growth inhibition, %; measured here: M. tuberculosis growth (absorbance);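 0% = vehicle and 100% = reference antibiotic; read after six days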
* marks the source's active call; other numbers are inactive results; . = not tested or not shown; & = joins results of further samples.

SMILES	BJeLR lethal	Bead autofluor	RN4220 kill	Mtb hypoxia rep	Mtb hypoxia rep growth	PrP 5UTR inh	Sa ugtP lethal
CCOC(=O)C1(Cc2cccc(Cl)c2)CCCN(C(=O)c2ccc(C)nc2)C1 (stereo not given)	8	3261	4.3	-16	-7	-26	1
Cc1cccc(C(=O)NNC(=O)CCC(=O)Nc2cccc(Cl)c2C)c1	6	2418	3.8	0	0	-29	4
COCc1ccc(CN2CCCC(CO)(Cc3cccc(OC)c3)C2)o1 (stereo not given)	-6	4632	2.0	4	-3	3	-7
O=C(c1cnn2c(C(F)F)cc(-c3ccccc3)nc12)N1CCCc2ccccc21	-2	11101	-0.3	3	4	-8	4
Oc1ccccc1C=NN1CCCCC1	.	.	10	-7	-3	.	1
CC(C(=O)c1cn(C)c2ccccc12)c1ccccc1 (stereo not given)	-11	9730	2.5	5	1	-11	5
CC1CCCC(NC(=O)C2CCC(CNc3c(N4CCCC4)c(=O)c3=O)CC2)C1C (stereo not given)	1	5774	1.9	5	-1	-14	7
CCCC(=O)Nc1ccc(C(=O)NNC(=O)c2ccco2)cc1	21	16095	5.6	2	-1	-10	13
Clc1ccc(NCn2cncn2)nc1	1	3712	2.7	.	.	-36	-1
O=C(O)C(Cc1c[nH]c2ccccc12)NS(=O)(=O)c1ccc(Cl)c(C(F)(F)F)c1 (stereo not given)	-1	4437	1.5	-1	-2	.	-7
C#CCOCCOCCOCCNc1nc(N2CCN(C(=O)[C@H](CCC(=O)O)n3cc(C(N)[C@H](C)CC)nn3)CC2)nc(N2CCN(C(=O)[C@H](Cc3ccc(O)cc3)n3cc(C(N)[C@H](C)CC)nn3)CC2)n1 (stereo not given in full)	0	2871	-9.8	5	4	10	-4
Cc1ccc(CCNC(=O)C2CCC(=O)N2C(C)C)cc1 (stereo not given)	-1	11031	0.9	11	10	-14	8
CN1CCC(OC(=O)c2cccc(Cl)c2)CC1	-7	4183	7.3	11	4	-6	3
Cc1ccc(C)c(OCc2cc(C(=O)N3CC[C@H](O)C3)no2)c1	-11	5573	11	10	2	-98	6
Cc1oc(-c2cccc(Cl)c2)[n+]([O-])c1C	3	3962	2.7	.	.	-22	10
Fc1ccccc1N1CCN(Cc2ccc3c(c2)OCO3)CC1	.	21279*	2.2	5	2	-39	2
COc1ccccc1CN1CC(C(=O)NCc2cc(F)cc(C(F)(F)F)c2)CCC1=O (stereo not given)	1	5632	0.4	0	-1	-12	0
O=C(CN1C(=O)c2ccccc2C1=O)Nc1cccnc1	-1	3195	-19	16	-23	-15	-2
COc1cc(CCC(=O)OCC(=O)NCC2CCCCC2)cc(OC)c1OC	-7	3959	0.4	6	6	-27	1
COc1ccc(NC(=O)c2cc3n(n2)C(C(F)(F)F)CC(c2ccc(OC)cc2)N3)cc1 (stereo not given)	-13	7737	1.2	0	5	-10	7
Cc1cccn2c(CNC3CCCc4ccccc43)c(C(=O)N3CCOCC3)nc12 (stereo not given)	2	4965	1.4	-2	7	-8	5
S=C(NN=Cc1ccccc1Cl)Nc1cccc(Cl)c1Cl	.	.	-7.9	2	-1	.	99*
COc1ccc(S(=O)(=O)N2CCOC2CNC(=O)C(=O)NCCN2CCOCC2)cc1 (stereo not given)	-12	5643	-1.5	-5	-5	-13	-4
NC(=O)CSc1nnc(NC(=O)c2ccc(S(=O)(=O)N3CCOCC3)cc2)s1	0	5085	-0.6	8	7	-5	5
CC(C)c1ccc(S(=O)(=O)N2CCC(C(=O)N3CCC3)CC2)cc1	4	4275	1.3	-8	-4	-14	0
COc1ccc(C(=O)COC(=O)CCC(=O)Nc2ccc(C(C)=O)cc2)cc1	-5	5542	1.5	-2	-2	-9	2
Cc1nn(C(=O)c2cccc([N+](=O)[O-])c2)c(C)c1Br	-2	3577	-0.4	-1	2	-22	20
CCNC(=S)NN=Cc1cccc(C=NNC(=S)NCC)c1	.	.	-0.7	4	-3	.	0
Cc1onc(-c2ccccc2Cl)c1C(=O)N1CC(C)CC(C)C1 (stereo not given)	3	6250	6.6	3	-12	-28	2
O=C(Cn1cnc([N+](=O)[O-])n1)NN=Cc1cc(Cl)ccc1O	.	.	7.5	12	8	.	12
CCSc1nc2c(c(=O)[nH]1)C(c1cccnc1)C(C(=O)OC(C)C)=C(C)N2 (stereo not given)	-18	4636	6.7	-3	10	-16	-2
CCOc1ccc(CN(C)Cc2cc(=O)oc3cc(C)c(Cl)cc23)cc1	-7	4211	8.8	-6	9	-7	10
Cc1ccc(OCCCC(=O)Nc2ccc(N3CCOCC3)cc2)c(C)c1	-1	1810	3.7	.	.	15	0
CN(CCc1cnn(C)c1)Cc1cn[nH]c1-c1ccc(-c2ccccc2)cc1	10	4314	2.1	-11	-3	-24	-2
Cc1cc2cc(CCNC(=O)CC(C)C)c(=O)[nH]c2cc1C	7	.	2.5	2	3	.	2
Cc1cccc(C)c1Nc1c(-c2ccc(N3CCOCC3)cc2)nc2ncccn12	-4	5713	0.7	10	6	-17	12
CCn1c(C(C)NC(=O)c2ccc(OC)c(OC)c2)nc2ccccc21 (stereo not given)	-12	9257	3.0	7	9	-20	-4
Cc1cc(=O)[nH]c(NN=Cc2c(F)c(F)c(F)c(F)c2F)n1	.	.	6.0	7	11	.	7
Cc1ccc(N(CC(=O)NC2CCCCC2C)S(=O)(=O)c2c(C)noc2C)cc1 (stereo not given)	0	5444	1.4	-5	8	-11	2
CC1CCCN(C/C(O)=C(\C#N)c2nc3ccccc3[nH]2)C1 (stereo not given)	4	2081	.	.	.	14	.
O=S(=O)(Cc1ccccc1)Nc1cccc(F)c1	1	2984	-0.2	0	-5	3	1
Cc1nn(Cc2ccccc2Cl)c(C)c1NC(=O)c1cc(-c2ccc(F)cc2)on1	1	9940	1.5	4	5	-4	3
CN(CC1CCCO1)S(=O)(=O)c1ccc(C(=O)Nc2ccccc2F)cc1 (stereo not given)	-2	5009	-3.0	0	-2	-6	4
CCOC(=O)C1=C(C)NC(C)=C(C(=O)OCC)C1C(=O)OC1CCOC1=O (stereo not given)	5	4588&3457	3.4&-14	3&22	7&11	-11&-8	4&-2
Cn1c(=O)c2c(nc(CN3CCC(C(N)=O)CC3)n2Cc2ccccc2F)n(C)c1=O	-6	9915	1.6	-3	0	-1	-1
CCN(CC)P(=O)(c1n(CC)cc[n+]1CC)N(CC)CC	7	3508	-0.5	0	2	-3	0
COC(=O)c1ccc(NC(=O)N2CCOCC2)cc1	-2	2723	3.0	.	.	-35	8
CCOc1ccc(C=C(NC(=O)c2ccccc2Cl)C(=O)O)cc1	.	.	5.8	7	16	.	-2
NC(CC(=O)NCCOc1ccccc1)=NO	.	.	8.2	-1	6	.	-6
Cc1ccc(C(=O)CSc2ccccc2C(=O)O)cc1	-4	5852	2.3	-14	-1	-12	4
Cc1ccc(-n2ncc3c2CC(C)(C)CC3NC(=O)c2ccncc2)cc1 (stereo not given)	1	6186	2.1	11	17	-25	-8
Clc1cccc(CN2CCN(Cc3ccco3)CC2)c1	9	3826	1.7	5	6	-10	5
COC(=O)CC1C(=O)NCCN1C(=O)Nc1ccccc1 (stereo not given)	7	10086	3.2	7	1	-21	0
COc1ccc(/C=N/NC(=O)c2cc(C3CC3)[nH]n2)cc1OC	1	3657	.	.	.	-15	.
NC(=O)N/N=C/c1c(F)c(F)c(F)c(F)c1F	-3	4401	.	.	.	-63	.
CC(=O)COc1coc(CN2CCN(c3ccc(F)cc3)CC2)cc1=O	2	4587	1.9	14	3	-2	6
CCOC(=O)C(C)(C)Sc1nc2c(cnn2-c2ccc(Cl)cc2)c(=O)[nH]1	-5	6083	2.4	1	3	-2	0
C=CCOc1ccc(C=NNC(=O)CN2CCOCC2)cc1OCC	.	.	0.8	4	4	.	4
COc1ccc(NC(=O)c2cccc(NC3=NC4CS(=O)(=O)CC4S3)c2)cc1Cl (stereo not given)	-1	4608	6.0	6	4	6	4
COC(=O)c1c(NC(C)=O)sc(C)c1C	5	6294	4.1	4	4	-19	4

Ordered by heavy-atom count (lowest first): 3 of the compounds above
SMILES	BJeLR lethal	Bead autofluor	RN4220 kill	Mtb hypoxia rep	Mtb hypoxia rep growth	PrP 5UTR inh	Sa ugtP lethal
Oc1ccccc1C=NN1CCCCC1	.	.	10	-7	-3	.	1
NC(=O)N/N=C/c1c(F)c(F)c(F)c(F)c1F	-3	4401	.	.	.	-63	.
COc1cc(CCC(=O)OCC(=O)NCC2CCCCC2)cc(OC)c1OC	-7	3959	0.4	6	6	-27	1

The listing picks up, repeating the four entries before the break.
SMILES	BJeLR lethal	Bead autofluor	RN4220 kill	Mtb hypoxia rep	Mtb hypoxia rep growth	PrP 5UTR inh	Sa ugtP lethal
CCOC(=O)C(C)(C)Sc1nc2c(cnn2-c2ccc(Cl)cc2)c(=O)[nH]1	-5	6083	2.4	1	3	-2	0
C=CCOc1ccc(C=NNC(=O)CN2CCOCC2)cc1OCC	.	.	0.8	4	4	.	4
COc1ccc(NC(=O)c2cccc(NC3=NC4CS(=O)(=O)CC4S3)c2)cc1Cl (stereo not given)	-1	4608	6.0	6	4	6	4
COC(=O)c1c(NC(C)=O)sc(C)c1C	5	6294	4.1	4	4	-19	4
CCOC(=O)C(CC)Sc1nc2c(cnn2-c2ccc(F)cc2)c(=O)[nH]1 (stereo not given)	-16	3623	10	9	6	-19	-3
Cc1cc(C#N)c2ccccc2n1	3	2743	2.0	-12	-6	-24	3
CCC(=O)NC(=S)N1CCN(c2ccc([N+](=O)[O-])cc2Cl)CC1	0	11881	2.0	4	4	-33	8
C/C(CC(=O)Nc1ccccn1)=N\NC(=O)c1ccc(C)cc1	4	2008	.	.	.	-20	.
CCOC(=O)c1c(C)oc2cc(Br)c(O)c(Br)c12	15	5791	23	.	.	-11	11
Cn1c(=O)n(C)c2cc([N+](=O)[O-])c(N3CCNCC3)cc21	5	4040	0.9	-6	7	1	-1
Cc1cccc(NC(=S)NNC(=O)CCn2cc(C)cn2)c1	4	22732*	3.5	1	0	-3	4
CCOc1cc(N2CCOCC2)c(OCC)cc1NC(=O)CN1C(=O)C2CC=CCC2C1=O (stereo not given)	3	3014	6.4	5	7	-9	5
COc1ccc2[nH]cc(C(=O)CN3CCC(C)CC3)c2c1	-3	7935	-1.9	2	1	-48	-1
COC(=O)c1cccc(NC(=O)CSc2nnc(COc3cccc(C)c3)n2C)c1	-8	2466	7.9	10	5	-14	0
O=C(O)CCNc1nc(-c2ccccc2)c2cc(Br)ccc2n1	3	3685	-1.0	0	12	-15	-2
CCCN1CCN(CC(=O)Nc2nnc(C)s2)CC1	0	3186	0.8	7	-2	52*	5
O=C(COC(=O)c1cccc(Br)c1)Nc1ccc2[nH]c(=O)[nH]c2c1	1	7413	0.7	4	-5	4	5
Cc1c(CC(=O)NCC(=O)O)c(=O)oc2cc3c(cc12)CCC(C)(C)O3	6	3620	-0.7	-15	-2	-12	-4
COc1ccc(Cl)cc1NC(=O)C1CCCN(c2cc(C)nc3ncnn23)C1 (stereo not given)	9	9706	0.3	-6	6	-10	-4
CCN(CC)S(=O)(=O)c1cc(NC(=O)c2cccc(N3C(=O)CCC3=O)c2)ccc1Cl	-10	.	2.1	7	6	-14	1
CN(C)S(=O)(=O)N1CCCC(C(=O)c2ccc(-c3ccccc3)c(F)c2)C1 (stereo not given)	3	3935	7.1	1	0	-19	6
Cc1cc(C(=O)CN2CCC(C)CC2)c(C)n1-c1ccccc1F	-4	2343	4.1	9	2	28	-1
COc1ccc(C2=NN(c3nc(C)cc(C)n3)C(=O)C2)cc1	1	3850	3.1	-6	12	-26	-70
COc1ccc(OC)c(CN2C(=O)CCC2(C)C(=O)NC2CCCCCC2)c1 (stereo not given)	0	22977*	3.8	5	0	-29	8
Cc1cc(C)n(Cc2cccc(C(=O)NN=Cc3ccncc3)c2)n1	.	.	3.2	5	0	.	11
CCOC(=O)c1sc(C)c2c1NC(C)(c1cccs1)NC2=O (stereo not given)	3	15879	3.5	-8	-7	-26	-20

Bioassay records (PubChem BioAssay)
